Bioassay records: PubChem, National Center for Advancing Translational Sciences (NCATS)
Six1-Eya2 blk – Six1/Eya2 interaction inhibition; Q15475+O00167; AlphaScreen GST-Six1/His-Eya2 binding, biochemical; hits give low values; control for the full effect not named in the record; activity change, % (concentration not given with the values); 360,000 compounds, 0.56% hits; in the data active = activity change below about -65%; inconclusive = about -30% to -65%; inactive = above about -30%; also: % is scaled to controls: 0 for no effect and ±100 for the full control effect
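Homogeneous AlphaScreen proximity assay pairing GST-Six1 with His-tagged Eya2 (added as 5X mix: 250 nM and 500 nM) in 50 mM Tris pH 8.0, 300 mM NaCl, 1 mM TCEP. Glutathione donor and nickel acceptor beads; 1 h, 37 °C, dark.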
CtBP-E1A inh – CtBP/E1A binding inhibition | AlphaScreen GST-E1A/His-CtBP binding, 1536-well; hits give low values; control for the full effect not named in the record | activity change, % (test concentration not listed) | 340,000 compounds, 0.49% hits; in the data active means activity change below about -65%; inconclusive means about -30% to -65%; inactive means above about -30%; also: % is scaled to controls: 0 for no effect and ±100 for the full control effect
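Steps: dispense buffer (Tris pH 8.0, NaCl 300 mM, TCEP 1 mM, BSA, Tween 20); add 5X protein mix (GST-E1A, His-CtBP, 125 nM each); pin 23 nL compound; 2 h at 37 °C, dark; add 5X beads (50 ug/mL); 1 h; read.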
TRPML1 agonist – agonists of human TRPML1 channel. Q9GZU1. TRPML1-expressing cells, Ca2+ dye fluorescence, FDSS; host cell line not named in the record; reference of the full effect not given here. activation, % (no concentration beside the values). 410,000 compounds, 0.12% hits. AID 624414; in the data active = activation above about 50%; inconclusive = about 30% to 50%; inactive = below about 30%; also: 0% is about no effect; the text of the record puts the active cut at 80%
Target sequence (Q9GZU1 whole entry, looked up): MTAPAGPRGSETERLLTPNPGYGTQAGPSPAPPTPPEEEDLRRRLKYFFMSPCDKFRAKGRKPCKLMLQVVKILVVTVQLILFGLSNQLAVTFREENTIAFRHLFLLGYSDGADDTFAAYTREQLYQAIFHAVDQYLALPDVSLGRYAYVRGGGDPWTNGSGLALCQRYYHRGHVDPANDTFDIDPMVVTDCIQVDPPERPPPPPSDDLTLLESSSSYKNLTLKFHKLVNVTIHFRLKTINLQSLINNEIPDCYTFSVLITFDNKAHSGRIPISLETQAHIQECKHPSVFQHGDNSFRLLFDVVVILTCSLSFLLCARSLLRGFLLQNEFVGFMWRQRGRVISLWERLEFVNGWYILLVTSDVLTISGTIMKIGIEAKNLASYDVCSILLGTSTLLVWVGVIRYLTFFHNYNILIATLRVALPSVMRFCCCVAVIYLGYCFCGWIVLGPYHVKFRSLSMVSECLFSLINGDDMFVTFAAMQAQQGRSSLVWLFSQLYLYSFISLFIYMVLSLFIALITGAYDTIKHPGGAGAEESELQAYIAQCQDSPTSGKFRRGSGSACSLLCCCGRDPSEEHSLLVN
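Kinetic FDSS Ca2+ read in Tet-induced TRPML1-DL cells (ABD Ca8 dye plus quencher, 45-90 min RT loading): baseline, then compound, then 110 s agonist window; EC80 agonist 54-4 at 4uM final added afterwards for a 110 s antagonist window.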
D2 agonist – human D2 receptor agonism in beta-arrestin assay | P14416 | DiscoveRx PathHunter D2 beta-arrestin, luminescence, 90 min; 100% = 57 uM dopamine signal | activation, % (no concentration beside the values) | 360,000 compounds, 0.084% hits | AID 624465; in the data active = activation above about 40%; inconclusive = about 15% to 40%; inactive = below about 15%; also: compound concentration not given in the record; the text of the record calls up to 30% inactive
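DiscoveRx PathHunter D2 beta-arrestin cells (2,100/well) attached overnight, then compound-stimulated 90 min at 37 C in HBSS/10 mM HEPES/0.1% Tween-20 buffer; beta-galactosidase complementation read by luminescence after 1 h at ambient temperature. Dopamine 57 uM final (EC100) as control.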
D2 potentiator – potentiates the human D2 dopamine receptor allosterically; potentiation, % (concentration not given with the values); DiscoveRx D2 beta-arrestin cells, luminescence, 90 min; 100% = 57 uM dopamine signal; P14416; AID 624464; 360,000 compounds, 0.23% hits; active = potentiation of 50% or more; inconclusive = 30% to 50%; inactive = 30% or less;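 also: tested on top of an EC20 dose of dopamine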
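PathHunter beta-arrestin assay in DiscoveRx D2 cells. Compounds were added with an EC20 of dopamine (50 nM final) for 90 min at 37 deg C. Luminescence was read 1 h after detection reagent, with 57 uM dopamine as the EC100 control.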
PINK1 modulator – changes PINK1 expression | Potency, µM (titrated, usually from 76.6 µM), for inactives: top-dose activation (PINK1 increase), usual class: activators | PINK1 immunofluorescence, high-content cytometry, 24 h | 410,000 compounds, 0.2% hits; active = well fitted activation curve with a large enough effect; inconclusive = small, poorly fitted or top-dose-only effect; inactive = flat fitted curve, though single readings scatter; cell line not stated here;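 also: potency is read from the fitted curve at half-maximal effect; % of control where 0% means no effect; nearly all actives have a fitted effect of over 65% in size; a mitochondrial uncoupler was the plate control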
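Readout is PINK1 immunofluorescence, quantified alongside mitochondrial, cell and nuclear markers by laser-scanning microplate cytometry. Cells from a stable line were exposed to compound titrations (5 concentrations) for 24 hours, with CCCP controls.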
Numbers without * were called inactive; ? = inconclusive; . = not tested or not shown; [ ] = another dose, or the depositor's remark.

SMILES	Six1-Eya2 blk	CtBP-E1A inh	TRPML1 agonist	D2 agonist	D2 potentiator	PINK1 modulator
N#Cc1ccc(N2CCCC2C(=O)O)c([N+](=O)[O-])c1 (configuration not stated)	4	4	-0.1	-0.6	0	0.9%
COc1ccc(N2CC(C(=O)Nc3ccc([N+](=O)[O-])cc3Br)CC2=O)cc1 (configuration not stated)	-7	-5	-0.8	-3.3	3	-3.5%
Cc1ccc2c(CN3CCCCC3)cc(=O)oc2c1C	4	0	.	-4.2	-7	1.2%
O=C(CCCCn1c(=O)[nH]c2ccsc2c1=O)NCC1CCCO1 (configuration not stated)	4	9	0.3	-0.1	-7	-4.1%
COc1ccccc1C=NN1CCCCCC1	-22	-7	-0.7	-3.4	-24	7.7%
CC(Oc1ccc(Br)cc1)C(=O)Nc1ccc(S(=O)(=O)N(C)C2CCN(C)CC2)cc1 (configuration not stated)	-3	0	0.4	-4.1	-16	-1.7%
CC(C)NC(=O)CSc1nc(-c2ccccc2)cs1	4	.	4.2	1.8	0	-0.3%
O=C(Cc1cccs1)N=Nc1c(O)[nH]c2ccccc12	3	-6	0.3	0.7	-13	0.4%
CCCn1c(C)cc(C(=O)COC(=O)c2cc(=O)[nH]c3ccccc23)c1C	-2	2	-0.6	1.0	-7	7.6%
COC(=O)c1cc(-c2ccc(Cl)cc2)n(-c2ccc(S(N)(=O)=O)cc2)n1	-3	0	-0.7	-3.0	3	2.1%
CCCCOC(=O)N/N=C/C=C/c1ccccc1	-2	1	-1.9	-1.7	-4	3.9%
O=C(CN(CC1CCCO1)C(=O)CNS(=O)(=O)c1ccc(F)cc1)NC1CCCC1 (configuration not stated)	0	3	-0.1	-0.5	-3	1.5%
CN(C)Cc1cn(CCC(=O)O)c2ccccc12	1	6	-1.0	-0.8	-12	-2.5%
NC(=O)c1ccccc1[N+](=O)[O-]	-3	0	-0.8	2.0	-2	-0.4%
CCOC(=O)C(CO)(NC(C)=O)C(=O)OCC	0	4	0.4	-0.3	-16	-0.4%
CCOC(=O)c1cnn(-c2ccc(C(F)(F)F)cn2)c1N	6	10	1.0	0.9	-7	6.0%[38.3 µM]
CCC(C)[C@H](NC(=O)NCc1cccs1)C(=O)O (some centres not stated)	12	0	0.5	-2.8	-5	-1.7%
COc1cc(C)c2c(c1OC)C(=O)CC2	6	11	0.2	-2.4	-23	1.8%
C=CCOC(=O)C1=C[C@@H](C2CCCCC2)C[C@@H](OCc2ccc(CO)cc2)O1	-2	-1	0.0	-0.5	-39	11%
C=CCN(C(=O)c1csnn1)C(C(=O)NC1CCCCC1)c1ccc(C)cc1 (configuration not stated)	-5	4	-0.5	1.2	-3	0.9%
COc1cc(C(C(=O)NC2CCCCC2)N(C(=O)c2snc(C(N)=O)c2N)c2ccc(C)cc2)ccc1O (configuration not stated)	5	-8	-0.3	-3.5	-7	-4.0%
O=C1/C(=C/c2cccnc2)SC(=S)N1c1ccccc1	3	.	0.3	-6.8	-1	-0.1%
Cc1ccc(N(CC(=O)NC(C)(C)C)C(=O)CNC(=O)c2cccs2)c(C)c1	5	4	-0.9	-1.6	-2	1.8%
COc1ccc(OCC(=O)Nn2c(-c3ccc(OC)cc3)nc3ccccc3c2=O)cc1	-4	-11	2.0	1.6	-7	-0.9%
CN(C)Cc1c(O)ccc2c3c(c(=O)oc12)CCCCC3	3	1	0.6	0.4	-1	-0.6%

Going on with the list:
SMILES	Six1-Eya2 blk	CtBP-E1A inh	TRPML1 agonist	D2 agonist	D2 potentiator	PINK1 modulator
CCN(CC)c1nc(-c2ccccn2)nc(-c2ccccc2)c1C#N	5	-1	3.0	-3.8	4	3.0%
O=C(Cn1cnc2ccccc2c1=O)N1CCN(Cc2ccccc2)CC1	8	-2	1.0	-0.5	-6	3.7%
CN(CCc1ccccc1)C(=O)c1cc(COc2cccc(C(F)(F)F)c2)on1	22	.	1.2	1.9	-7	0.5%
CCC(c1nnnn1CCOC)N1CCN(C(=O)c2ccco2)CC1 (configuration not stated)	22	1	0.1	0.0	-9	-1.8%
O=C(Nc1cccc(-n2cnnn2)c1)c1cc(Cl)nc(Cl)c1	-2	-1	-0.4	0.5	-4	-0.2%
Cc1ccc(OCCn2c3ccccc3n3nc(C)c(=O)nc23)cc1	4	1	0.8	-3.0	-9	-0.6%
CCOC(=O)C1(CC2CCCCO2)CCN(Cc2nc3ccccc3[nH]2)CC1 (configuration not stated)	4	10	0.2	-1.8	-6	2.4%
O=C(CSc1n[nH]c(-c2cccnc2)n1)Nc1ccccc1[N+](=O)[O-]	1	-1	0.0	-0.4	2	-1.9%
Cc1ccc(C(=O)N2CCN(c3ccccn3)CC2)cc1C	-3	6	5.1	4.8	2	-0.3%
Cc1cc(C)c(-c2csc(NC(=O)CCCc3nc4ccccc4c(=O)[nH]3)n2)c(C)c1	-12	-4	2.9	-5.0	-7	0.7%
COc1cc(C(=O)N2CCN(C(=O)Cc3ccccc3)CC2)cc(OC)c1OC	1	4	0.8	-0.8	-1	0.1%
CN(c1ccccc1)S(=O)(=O)c1ccc(C(=O)Nc2cccc(S(=O)(=O)N3CCOCC3)c2)cc1	19	-9	0.1	-1.4	-19	4.2%
COc1cc(OC)cc(C(=O)N2CCN(C(=O)c3cccnc3)CC2)c1	-4	.	-0.5	-3.8	12	-0.6%
COCCCNC(=O)CSc1nc2c(sc(=S)n2-c2cc(Cl)ccc2OC)c(=O)[nH]1	-1	.	1.1	-2.8	-5	1.6%
COC(=O)[C@@]12CCCCN1[C@H](c1ccc(-c3ccc(OC)cc3)c(OC)c1)[C@@H]1C(=O)N(C)C(=O)[C@@H]12	-9	-5	0.2	-1.6	-40	0.3%
O=C(NC(=S)Nc1ccc(F)cc1)C1CCCCC1	0	8	-0.6	-0.6	1	12%
Cc1ccc(SCc2nc(-c3ccncc3)no2)cc1	2	13	0.7	-0.9	0	5.3%
O=C(CSc1nnc(NC(=O)c2c(F)cccc2F)s1)Nc1ccc(F)cc1	-1	.	0.7	4.2	-8	-1.5%
CCn1nnnc1NCc1ccc(OCc2ccc(F)cc2Cl)c(OC)c1	-1	-10	0.8	-0.9	-11	3.6%
Nc1nnc(CC(=O)N/N=C/c2ccc(-c3ccc(F)cc3)o2)s1	-9	0	1.6	3.6	-3	0.8%
COc1ccc(-c2cn3c(C)c(C(=O)NCc4ccc5c(c4)OCO5)sc3n2)cc1	-20	-13	0.9	-5.4	-8	17%
COc1ccc(C(=O)Nc2ccc(OC)c([N+](=O)[O-])c2)cc1Br	-4	.	0.3	-3.0	-8	6.3%
CCOC(=O)CC(NS(=O)(=O)c1ccc2[nH]cc(C(=O)O)c(=O)c2c1)c1ccc(OCC)c(OC)c1 (configuration not stated)	-9	4	-0.8	-0.9	-6	-2.0%
CCCC(=O)Nc1ccc(OCC(O)CNC(C)C)c(C(C)=O)c1 (configuration not stated)	1	7	-0.4	-1.0	-13	-0.1%
COc1ccc(CCN2CC(C(=O)N(C)Cc3ccc4nsnc4c3)CCC2=O)cc1 (configuration not stated)	2	6	1.9	-0.6	7	0.0%

The listing continues.
SMILES	Six1-Eya2 blk	CtBP-E1A inh	TRPML1 agonist	D2 agonist	D2 potentiator	PINK1 modulator
CC1(C)Cc2ccccc2C(/C(=N/O)C(N)=O)=N1	18	0	0.8	-1.8	5	-2.6%[38.3 µM]
OC(CNCc1ccc(Cl)c(Cl)c1)c1ccccc1 (configuration not stated)	3	2	0.0	-6.7	-15	7.0%
CN(C(=O)COC(=O)c1ccc2c(c1)NC(=O)CS2)C1CCS(=O)(=O)C1 (configuration not stated)	3	1	0.5	-4.9	3	0.6%
CCOC(=O)c1cc(C)sc1NC(=O)CSc1nnnn1C	-2	-4	1.1	-2.4	11	-3.7%
COc1ccc(NS(=O)(=O)c2cc(N=Nc3c(O)[nH]c(=O)[nH]c3=O)ccc2OC)cc1Br	?	-16	-0.5	-2.7	-17	1.5%
CC(=O)C1=C(N2CCCCC2)CCC1=O	-4	-5	-0.2	0.7	-7	-0.1%
O=C(COC(=O)C1CC(O)CN1S(=O)(=O)c1ccccc1[N+](=O)[O-])c1ccc[nH]1 (configuration not stated)	-1	-6	0.3	2.0	0	-1.1%
CN(C)S(=O)(=O)c1ccc(N2CCCC2)c(C(=O)NCc2cccc(C(F)(F)F)c2)c1	1	7	-0.4	-1.7	-9	1.7%
CC(C)NC(=O)N(C)C[C@H]1Oc2cc(C#Cc3ccc(F)cc3)ccc2S(=O)(=O)N([C@H](C)CO)C[C@H]1C	6	-3	2.0	0.0	-6	0.9%
O=C(Nc1ccc(NC(=O)c2cccs2)cc1)c1cccs1	-4	6	-0.1	1.6	5	13%
CC12CC3CC(C)(C1)CC(C(=O)NCc1cccnc1)(C3)C2	23	-14	0.4	0.7	-8	-2.0%
CCN1CNC(=S)N(CCc2ccccc2)C1	7	-4	0.4	-4.4	-4	0.1%
Cc1nnc(NC(=O)c2oc3ccccc3c2C)s1	2	-1	0.2	-1.0	-2	0.7%
CCCCNC(=O)C(C#N)c1nc2ccccc2nc1N1CCN(c2ccccc2F)CC1 (configuration not stated)	-1	-1	0.2	-3.8	9	2.5%
CSc1ccccc1NC(=O)Nc1ccccc1	4	5	0.4	-3.7	-14	-6.8%[38.3 µM]
CC(=O)c1cccc(N(C(=O)c2ccco2)C(C(=O)NC2CCCC2)c2ccncc2)c1 (configuration not stated)	0	-5	1.4	-3.8	-9	-1.0%
